RE007 growth inh = less growth of the S. pombe RE007 Vpr strain. S. pombe RE007 Vpr strain, BacTiter-Glo ATP luminescence, 24 h; control for the full effect not named in the record. Potency, µM (top dose mostly 92.2 µM), without a hit: at the highest dose activity change, negative = less growth. actives 0.21% (n = 360,000). AID 651644; active = well fitted falling curve with a large enough effect; inconclusive = small, poorly fitted or top-dose-only effect; inactive = no such curve, though single readings can be large or run the other way;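 also: % is scaled to controls: 0 for no effect and ±100 for the full control effect; nearly all actives have a fitted effect of over 50% in size; the assay follows cell death caused by Vpr and the record does not say whether a fall means rescue or toxicity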
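Fission yeast strain RE007, carrying one chromosomally integrated HIV-1 vpr copy, was seeded at OD 0.01 in PMG+AL medium with 23 nL pinned compound. After 24 h at 30 °C and 99% humidity, viability was read by BacTiter-Glo luminescence.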
Cruzain noTriton = inhibitors of Trypanosoma cruzi cruzain without detergent. purified cruzain, Z-FR-AMC fluorescence, no detergent. AID 1476. P25779. actives 2.3% (n = 200,000). Potency, µM, for inactives: max response, negative = inhibition, hits mostly inhibitors;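 also: plate controls were enzyme without inhibitor for no effect and buffer without enzyme for full effect; nearly all actives have a fitted effect of over 40% in size; top concentration of the series not given in the record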
Target sequence (P25779 123-467 limits assumed): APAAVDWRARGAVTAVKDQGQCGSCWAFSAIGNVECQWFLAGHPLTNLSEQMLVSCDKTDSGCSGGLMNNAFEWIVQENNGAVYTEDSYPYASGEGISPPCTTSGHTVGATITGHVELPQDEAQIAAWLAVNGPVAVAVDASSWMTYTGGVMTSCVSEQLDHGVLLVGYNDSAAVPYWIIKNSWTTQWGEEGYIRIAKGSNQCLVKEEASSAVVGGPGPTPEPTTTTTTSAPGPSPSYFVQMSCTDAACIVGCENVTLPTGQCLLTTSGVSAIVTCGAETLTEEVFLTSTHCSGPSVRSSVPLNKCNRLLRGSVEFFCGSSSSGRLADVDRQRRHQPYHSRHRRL
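Purified cruzain at 1.5 nM, pre-incubated 15 min with compound at room temperature in 100 mM sodium acetate pH 5.5, 5 mM DTT, 0.00005% Triton X-100. Reaction started with 2 uM Z-FR-AMC; AMC fluorescence increase over 60 s gives rate.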
Marburg entry inh = inhibitors of Marburg virus binding or cell entry; Marburg virus pseudotyped entry inhibition, cell reporter; control for the full effect not named in the record; about a third of the inactives were read at about 46 µM; Potency, µM (doses to about 37.8 µM), for inactives: at the highest dose activity change, negative = inhibition, actives largely listed as inhibitors; actives 1.8% (n = 300,000); active = well fitted inhibition curve with a large enough effect; inconclusive = small, poorly fitted or top-dose-only effect, or effect the other way; inactive = flat fitted curve, though single readings scatter; tested in HEK293 cells; about a fifth of its hits are not listed in these tables; also: % is scaled to controls: 0 for no effect and ±100 for the full control effect; luciferase read-out
StopGo reporter = lowers the luciferase signal of an FMDV 2A StopGo reporter; actives 1.2% (n = 410,000); Potency, µM (top dose mostly 57.9 µM), for inactives: top-dose signal change, negative = less light; human cells with a luciferase reporter of 2A StopGo recoding; control for the full effect not named in the record; AID 1159524; active = well fitted falling curve with a large enough effect; inconclusive = small, poorly fitted or top-dose-only effect; inactive = no such curve, though single readings can be large or run the other way; tested in HEK293T cells; also: % is scaled to controls: 0 for no effect and ±100 for the full control effect; nearly all actives have a fitted effect of over 45% in size; luciferase light after 4 h
SARS PLpro yeast = inhibitors of SARS-CoV papain-like protease in yeast; S. cerevisiae expressing SARS-CoV PLpro, growth rescue; control for the full effect not named in the record; Potency, µM (doses to about 32.9 µM), without a hit: at the highest dose activity, positive = growth rescue; actives 0.19% (n = 330,000); AID 485353; active means well fitted rising curve with a large enough effect; inconclusive means small, poorly fitted or top-dose-only effect; inactive means no such curve, though single readings can be large or run the other way; also: 0% is about no effect; nearly all actives have a fitted effect of over 55% in size; growth read by luminescence after 48 h
NS1 function inh = blocks influenza NS1 protein function | Potency, µM (series often up to 46.1 µM), inactives show top-dose activity, positive = more growth | actives 0.4% (n = 270,000) | S. cerevisiae slowed by influenza A NS1, growth recovery by OD600; active means well fitted rising curve with a large enough effect; inconclusive means small, poorly fitted or top-dose-only effect; inactive means no such curve, though single readings can be large or run the other way; also: nearly all actives have a fitted effect of over 50% in size
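S. cerevisiae expressing influenza A NS1, grown in glucose, washed, then diluted 1:100 into pH 6.0 -URA galactose medium with 23 nl compound. Growth recovery read as OD600; NS1-free strain serves as control.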
LASV entry inh = inhibitors of Lassa virus binding or cell entry; Lassa virus pseudotype entry inhibition, cell reporter; control for the full effect not named in the record; Potency, µM (doses to about 37.9 µM), for inactives: top-dose activity change, negative = inhibition, hits mostly inhibitors; actives 1.2% (n = 300,000); AID 540256; active means well fitted inhibition curve with a large enough effect; inconclusive means small, poorly fitted or top-dose-only effect, or effect the other way; inactive means flat fitted curve, though single readings scatter; tested in HEK293 cells; also: % is scaled to controls: 0 for no effect and ±100 for the full control effect; nearly all actives have a fitted effect of over 50% in size; luciferase read-out
Cruzain Triton = inhibitors of Trypanosoma cruzi cruzain with detergent; P25779; purified cruzain, Z-FR-AMC fluorescence, 0.01% Triton; Potency, µM, for inactives: max response, negative = inhibition, hits mostly inhibitors; actives 0.43% (n = 200,000);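 also: plate controls were neutral wells for no effect and buffer without enzyme for full effect; nearly all actives have a fitted effect of over 40% in size; top concentration of the series not given in the record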
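Compounds were screened in titration against cruzain (1.5 nM) with 0.01% Triton X-100 to counter colloidal aggregation. Activity was the AMC fluorescence increase over 60 s after adding 2 uM Z-FR-AMC at pH 5.5.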
Numbers without * were called inactive; ? = inconclusive; / = not tested or not shown; [ ] = another dose, or the depositor's remark. Unless noted, calls follow the shape of the dose curve; as a rule, active = well fitted curve in the direction sought with a large enough effect; inconclusive = small, poorly fitted or top-dose-only effect, or another doubt; inactive = no such curve, though single readings can be large; an effect the other way counts as inactive or inconclusive. Potency is read from the fitted curve at half-maximal effect.

SMILES	RE007 growth inh	Cruzain noTriton	Marburg entry inh	StopGo reporter	SARS PLpro yeast	NS1 function inh	LASV entry inh	Cruzain Triton
CCOC(=O)C(NC(C)=O)(Nc1ccc(S(N)(=O)=O)cc1)C(F)(F)F (configuration not stated)	1%	10%	?	-13%	-2%	17%	10%	3.3%
COCC(=O)N1CCC(Oc2ccc(C(=O)NC(C)c3csc(C)n3)cc2)CC1 (configuration not stated)	11%	/	4%[46.1 µM]	10%	-3%	-9%	2%[46.1 µM]	/
CCc1nnc(NC(=O)CSc2nc3c(C)cccc3[nH]2)s1	-8%	-1%	?	-5%	21%	8%	16%	-4.4%
COc1ccc(C2C(C(=O)Nc3ccccc3)=C(C)Nc3nc(-c4ccccc4Cl)nn32)cc1OC (configuration not stated)	/	26%	?	-15%	/	/	?	-6.7%
Cc1ccc(C)c(CN2C(=O)CSc3ccc(C(=O)NCc4ccc(F)cc4)cc32)c1	/	-1%	0%[46.1 µM]	-19%	/	/	-7%[46.1 µM]	-0.7%
COc1ccc(C(=O)OCCNC(=O)c2ccncc2)cc1OC	-3%	4%	1%	-14%	-6%	12%	8%	-1.0%
Cc1cccn2cc(CNc3ccccc3)nc12	-19%	?	?	36%[activator]	-1%	0%	?	1.3%
COc1ccccc1-c1noc(-c2ccccc2C(=O)N2CCOCC2)n1	-1%	7%	-12%[46.1 µM]	-23%	-5%	1%	-8%	3.6%
CCCOc1cccc(C(=O)Nc2ccc(-c3nc4ccccc4s3)c(Cl)c2)c1	/	?	?	2%	/	/	1%[46.1 µM]	-3.7%
CCNc1nc(NC(C)C)nc(SCCOc2ccc(C)cc2)n1	-18%	0%	?	-26%	-23%	-1%	?	-8.8%
O=C(Nc1ccc(-c2cn3c(n2)SCC3)cc1)c1ccc2c(c1)OCO2	-3%	/	?	21%	1%	/	-26%	/
NS(=O)(=O)c1ccc(CNC(=O)c2csc3c2CCCC3)cc1	3%	/	?	10%	1%	4%	-7%[46.1 µM]	/
Brc1ccc(Oc2nnnn2-c2ccccc2)cc1	-13%	-4%	-2%	20%	-5%	-33%	/	-4.8%
CC1(C)OC(=O)C(=CNC(CCC(N)=O)C(=O)O)C(=O)O1 (configuration not stated)	14%	-7%	?	-3%	0%	6%	9%	-4.8%
CCOC(=O)Cc1csc(NC(=O)CSc2nnc(-n3nc(C)cc3C)c3ccccc23)n1	7%	?	?	?	2%	4%	5%	-5.9%
O=C(CC1N=C2c3ccccc3N=C(SCc3ccccc3Cl)N2C1=O)NCCc1ccccc1 (configuration not stated)	/	-6%	/	29%	/	/	-10%[46.1 µM]	0.9%
O=C1C2CCCN2C(c2ccco2)N1c1ccc(F)cc1 (configuration not stated)	10%	/	-2%[46.1 µM]	3%	1%	/	-5%	/
CC(=O)c1cn(C)c(=O)c2ccccc12	3%	/	/	4%	-1%	9%	/	/
O=C(N/C(=C/c1cccs1)C(=O)N1CCCC1)c1ccccc1	8%	/	2%[46.1 µM]	0%	0%	-42%	/	/
CN1CCN(CC2(O)CCN(S(=O)(=O)c3ccc(Cl)cc3)CC2)CC1	-9%	/	?	-24%	3%	-3%	4%	/

Reprinted from the part before: six entries, followed by the next part.
SMILES	RE007 growth inh	Cruzain noTriton	Marburg entry inh	StopGo reporter	SARS PLpro yeast	NS1 function inh	LASV entry inh	Cruzain Triton
CCOC(=O)Cc1csc(NC(=O)CSc2nnc(-n3nc(C)cc3C)c3ccccc23)n1	7%	?	?	?	2%	4%	5%	-5.9%
O=C(CC1N=C2c3ccccc3N=C(SCc3ccccc3Cl)N2C1=O)NCCc1ccccc1 (configuration not stated)	/	-6%	/	29%	/	/	-10%[46.1 µM]	0.9%
O=C1C2CCCN2C(c2ccco2)N1c1ccc(F)cc1 (configuration not stated)	10%	/	-2%[46.1 µM]	3%	1%	/	-5%	/
CC(=O)c1cn(C)c(=O)c2ccccc12	3%	/	/	4%	-1%	9%	/	/
O=C(N/C(=C/c1cccs1)C(=O)N1CCCC1)c1ccccc1	8%	/	2%[46.1 µM]	0%	0%	-42%	/	/
CN1CCN(CC2(O)CCN(S(=O)(=O)c3ccc(Cl)cc3)CC2)CC1	-9%	/	?	-24%	3%	-3%	4%	/
C/C(=N\NC(=O)c1ccc(NS(=O)(=O)c2cccs2)cc1)c1ccc2ccccc2c1	3%	3%	-16%	0%	-13%	23%	?	-4.6%
COC(=O)c1ccc2c(=O)n(CCN3CCOCC3)c(SCC(=O)Nc3ccc(C)cc3)nc2c1	3%	/	/	22%	4%	-35%	/	/
O=C(NN1C(=O)C2C3C=CC(O3)C2C1=O)c1ccncc1 (configuration not stated)	11%	3%	?	11%	10%	-1%	-3%	-0.3%
O=C(O)CC(C(=O)O)c1ccc(OCCCCOc2ccc(C(CC(=O)O)C(=O)O)cc2)cc1 (configuration not stated)	5%	/	/	9%	2%	9%	/	/
Cc1ccc(OCC(=O)Nc2ccc(S(=O)(=O)Nc3ccccn3)cc2)cc1	-12%	/	1%[46.1 µM]	7%	-2%	3%	-5%[46.1 µM]	/
COc1cc2c(C(=O)NCc3ccccn3)cn(C)c(=O)c2cc1OC	1%	-1%	3%	-10%	-5%	-3%	5%	-1.3%
Cc1cc(N2CCCCCC2)nc2ccccc12	-15%	-5%	-4%	-7%	0%	-58%	-9%	-4.5%
CCOC(=O)C/C(N)=N/NC(=O)c1ccc(Cl)cc1Cl	1%	/	-12%[14.2 µM]	0%	11%	8%	1%	/
CC(C)(C)NC(=O)CSc1nncn1NCc1cccc2ccccc12	-4%	-6%	3%	-6%	10%	5%	-2%	2.0%
N#CC1(Nc2ccc(-c3ccc(Cl)cc3)cc2)CCCC1	14%	/	17%	36%[activator]	/	/	3%[46.1 µM]	/
COc1ccc(CNCCc2ccc3c(c2)OCO3)c(OC)c1OC	-3%	/	-5%	-6%	0%	3%	/	/
O=C(CCCCCl)Nc1c2c(nc3ccccc13)CCC2	-11%	/	3%[46.1 µM]	-10%	-1%	-14%	-9%[46.1 µM]	/
C=CCN(c1ccc(C(=O)NCCSc2ccccc2)cc1)S(C)(=O)=O	2%	/	/	9%	2%	-9%	/	/
CCOC(=O)N1CCC(N2C(=O)c3ccc(C(=O)NCc4ccc(F)cc4)cc3C2=O)CC1	2%	0%	18%	?	-10%	-44%	6%	-5.9%
O/N=C/c1cn(-c2ccccc2)nn1	-3%	/	?	30%	0%	/	?	/
Cc1ccc(-n2c(N)c(C(=O)N3CCCCC3)sc2=S)cc1	-29%	12%	11%	9%	-7%	-55%	-1%	-1.7%
CCN(Cc1cc2cc(C)ccc2[nH]c1=O)C(=O)c1cccc(OC)c1	?	-3%	?	?	0%	10%	?	-4.0%
CCOc1ccc(-n2c(O)c(C=Nc3ccc(N(CC)CC)cc3)c(=O)[nH]c2=O)cc1	4%	1%	?	/	1%	-6%	-2%	-7.0%
Cc1cccc(N2CCN(C(=O)c3ccc4c(Cl)c5c(nc4c3)CCCC5)CC2)c1C	/	12%	10%[46.1 µM]	-13%	/	/	29%[46.1 µM]	1.6%
COc1cc(C(=O)Oc2ccc(C(=S)N3CCOCC3)cc2)cc(OC)c1OC	-8%	/	/	-15%	-5%	3%	/	/

Looked up by compound from above (three):
SMILES	RE007 growth inh	Cruzain noTriton	Marburg entry inh	StopGo reporter	SARS PLpro yeast	NS1 function inh	LASV entry inh	Cruzain Triton
COc1cc2c(C(=O)NCc3ccccn3)cn(C)c(=O)c2cc1OC	1%	-1%	3%	-10%	-5%	-3%	5%	-1.3%
CCOc1ccc(-n2c(O)c(C=Nc3ccc(N(CC)CC)cc3)c(=O)[nH]c2=O)cc1	4%	1%	?	/	1%	-6%	-2%	-7.0%
CCOC(=O)N1CCC(N2C(=O)c3ccc(C(=O)NCc4ccc(F)cc4)cc3C2=O)CC1	2%	0%	18%	?	-10%	-44%	6%	-5.9%

Carrying on.
SMILES	RE007 growth inh	Cruzain noTriton	Marburg entry inh	StopGo reporter	SARS PLpro yeast	NS1 function inh	LASV entry inh	Cruzain Triton
Cn1nccc1C(=O)N1CCN(c2ccccc2F)CC1	-4%	/	/	-2%	1%	5%	/	/
Cc1c(S(=O)(=O)Nc2ccc(Br)cc2)c(=O)n(C)c(=O)n1C	15%	/	/	-7%	1%	2%	/	/
CCCCNC(=O)N1CCCN(c2ccc(C#N)cn2)CC1	5%	/	-5%	5%	1%	5%	/	/
CC1CCC2(CC1)NC(=O)N(CC(=O)NCc1ccc3c(c1)OCO3)C2=O (configuration not stated)	1%	/	/	-11%	-1%	-50%	/	/
Cc1cc(C(=O)O)n(C(C)(C)C)n1	26%	/	10%	-3%	-1%	1%	0%	/
CCOC(=O)c1ccc(NC(=O)CSc2nnc(C3CC3)n2CC)cc1	-1%	20%	17%	-4%	11%	-1%	?	-0.2%
COc1ccc(CNC(=O)c2cnccn2)cc1	16%	0%	12%	-5%	10%	5%	1%	6.7%
COc1ccc(C(C(=O)NCc2ccccc2)N(Cc2ccc3c(c2)OCO3)C(=O)c2cnccn2)cc1 (configuration not stated)	-2%	23%	0%	23%	1%	-1%	-30%	-4.7%
O=C(Cn1ncc2c1-c1ccccc1OC2)Nc1cccc(Cl)c1	9%	-24%	/	?	-5%	-1%	/	-4.9%
Cc1c(Cl)cccc1NC(=O)Cn1c(=O)n(Cc2ccco2)c(=O)c2sc3ccccc3c21	/	29%	23%[46.1 µM]	-3%	/	/	7%[46.1 µM]	5.5%
Cc1ccccc1Cn1c(=O)n(CCc2ccccc2)c(=O)c2ccccc21	/	1%	?	?	/	/	16%[46.1 µM]	1.3%
O=C(Nc1cccc(C(F)(F)F)c1)c1cccnc1NCCc1ccccc1	?	27%	?	-16%	-87%	2%	11%	-10%

Screens from PubChem BioAssay.
